DUX4 inh: blocks DUX4-driven transcriptional activation; 0.8% of 37,000 active; 293T-iDUX4 ZSCAN4-Gaussia luciferase reporter, 24 h; hits give low values; activity change, negative = inhibition, % (test concentration not listed);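 active = -10% or lower and over 25 points stronger than a control reporter; inconclusive = -10% or lower with a smaller gap; inactive = above -10%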;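 note: 0% = median of neutral control wells and -100% = median of positive control wells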
DUX4 inh difference: second read-out of DUX4 inh, no call of its own (marks repeat the call); Gaussia minus Italica difference, %; measured here: selective DUX4 reporter inhibition;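 worked out from the two reporters; negative = selective loss of the DUX4 reporter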
DUX4 inh control: also measured in DUX4 inh; calls as there; activity change, negative = inhibition, %; measured here: Italica tet-on control reporter;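 0 = neutral control and -100 = positive control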
* = called active by the depositor; ? = inconclusive; . = no result given. This is a subset; the hit share may differ from the screen's.

Under each structure: DUX4 inh, DUX4 inh difference, DUX4 inh control
- CN1C(=O)c2cc(NC(=O)c3cccc(C(F)(F)F)c3)ccc2OC[C@@H]2O[C@@H](CC(=O)NCCN3CCCC3)CC[C@@H]21
→ 3, 0, 3.0
- CC(C)OC(=O)N(C)C[C@@H]1OCc2ccccc2-c2ccccc2C(=O)N([C@H](C)CO)C[C@H]1C
→ 5, -2, 6.9
- COc1ccc(NC(=O)N(C)C[C@H]2OCc3ccccc3-c3c(n(C)c4ccccc34)C(=O)N([C@@H](C)CO)C[C@@H]2C)cc1
→ 2, 3, -0.9
- CS(=O)(=O)N1CC(=O)N2[C@@H](CO)[C@H](c3ccc(Br)cc3)[C@@H]2C1
→ 17, 6, 11
- O=C(C[C@@H]1CC[C@@H]2[C@H](COC[C@H](O)CN2Cc2ccc(Cl)cc2)O1)NCc1cccc(F)c1
→ ?, ., .
- N#Cc1cccc(-c2ccc(C3[C@@H]4CN(S(=O)(=O)c5cccc(Cl)c5)C[C@H]3N4)cc2)c1 (stereo not given in full)
→ ?, ., .
- Cc1ccccc1-c1ccc2c(c1)O[C@H](CN(C)Cc1ccncc1)[C@H](C)CN([C@@H](C)CO)S2(=O)=O
→ -1, -5, 4.0
- O=C(Nc1ccccc1)N1CC(=O)N2[C@@H](CO)[C@H](c3ccc(C#CC4CCCCC4)cc3)[C@@H]2C1
→ ?, ., .
- Cc1cccc(S(=O)(=O)N2C[C@H]3[C@@H](c4ccccc42)[C@H](CO)N3C(=O)C2CC2)c1
→ 1, 7, -6.6
- O=C(C[C@H]1CC[C@H]2[C@@H](COC[C@H](O)CN2CCC(F)(F)F)O1)NCc1ccc2c(c1)OCO2
→ 1, 0, 0.5
- CN(C)C(=O)c1cccc(-c2ccc([C@@H]3[C@H]4CN(C(=O)C5CCC5)CCCCN4[C@H]3CO)cc2)c1
→ 26, 10, 15
- COCC(=O)Nc1ccc2c(c1)C(=O)N(C)C[C@@H](OC)[C@@H](C)CN(C(C)=O)[C@@H](C)CO2
→ 6, 5, 0.6
- O=C([C@H]1[C@H](CO)[C@H]2Cn3c(cccc3=O)[C@@H]1N2CC1CC1)N1CCc2ccccc2C1
→ -3, -2, -1.1
- CN1CCN(C(=O)C[C@H]2CC[C@@H]3[C@H](COC[C@@H](O)CN3C(=O)c3ccccc3F)O2)CC1
→ 1, -9, 9.8
- CC(C)NC(=O)N(C)C[C@H]1Oc2cc(C#Cc3ccccn3)ccc2S(=O)(=O)N([C@@H](C)CO)C[C@@H]1C
→ -1, -1, -0.5
- O=C(Cc1ccccc1)N1CC[C@H]2[C@H](CO)Nc3ccc(-c4ccccc4F)cc3[C@H]21
→ -5, -3, -2.6
- C[C@H](O)C#Cc1ccc([C@@H]2[C@@H](CO)N3CCCCN(C(=O)Nc4ccccc4)C[C@H]23)cc1
→ 15, 18, -2.9
- CN(C)C(=O)C[C@H]1CC[C@@H]2[C@H](COC[C@@H](O)CN2Cc2ccc(C(F)(F)F)cc2)O1
→ ?, ., .
- CCCC#Cc1ccc([C@H]2[C@@H](CO)N3C(=O)CN(C(=O)Nc4ccccc4)C[C@@H]23)cc1
→ -8, 3, -11
- COc1ccc2c3c([nH]c2c1)[C@@H](CO)N(C(C)=O)CC31CN(C(=O)Nc2ccccc2F)C1
→ 8, -6, 13
- N#Cc1ccc(-c2ccc3c(c2)[C@H]2[C@H](CCN2C(=O)c2ccc(F)cc2)[C@@H](CO)N3)cc1
→ ?, ., .
- Cc1noc(C)c1S(=O)(=O)Nc1ccc2c(c1)C(=O)N([C@@H](C)CO)C[C@H](C)[C@@H](CN(C)Cc1ccc3c(c1)OCO3)O2
→ -2, -3, 1.1
- COCC(=O)N1C[C@H](C)[C@@H](OC)CN(C)C(=O)c2ccc(NC(=O)Nc3cccc(F)c3)cc2OC[C@@H]1C
→ -2, -5, 2.6
- COC(=O)C[C@H]1C[C@H]2c3cc(NC(=O)Cc4ccncc4)ccc3O[C@H]2[C@@H](CO)O1
→ 2, 3, -0.7
- COCC(=O)N1CC2(C1)CN(S(C)(=O)=O)[C@@H](CO)c1c2c2ccc(OC)cc2n1C
→ 7, -7, 15
- CCC(=O)N1C[C@H](O)COC[C@H]2O[C@H](CC(=O)NCc3ccc(Oc4ccccc4)cc3)CC[C@@H]21
→ 2, -1, 3.4
- Cc1cc(C(=O)Nc2cccc3c2O[C@@H](CN(C)C)[C@H](C)CN([C@H](C)CO)C3=O)n(C)n1
→ -1, 1, -1.6
- C/C=C/c1ccc([C@H]2[C@@H](CO)N(C(C)=O)[C@@H]2CN(CC(C)C)C(=O)CC)cc1
→ 1, 0, 1.3
- CN(C)C(=O)c1cccc(-c2ccccc2[C@H]2[C@@H](C#N)N(C(=O)C3CCC3)[C@H]2CO)c1
→ 4, 4, 0.1
- COC(=O)[C@@H]1[C@@H](CO)[C@@H]2Cn3c(ccc(C4=CCCC4)c3=O)[C@@H]2N1Cc1cncnc1
→ 0, -7, 6.5

Nothing new here: six of the compounds above.
Under each structure: DUX4 inh, DUX4 inh difference, DUX4 inh control
- COCC(=O)N1CC2(C1)CN(S(C)(=O)=O)[C@@H](CO)c1c2c2ccc(OC)cc2n1C
→ 7, -7, 15
- CCC(=O)N1C[C@H](O)COC[C@H]2O[C@H](CC(=O)NCc3ccc(Oc4ccccc4)cc3)CC[C@@H]21
→ 2, -1, 3.4
- Cc1cc(C(=O)Nc2cccc3c2O[C@@H](CN(C)C)[C@H](C)CN([C@H](C)CO)C3=O)n(C)n1
→ -1, 1, -1.6
- C/C=C/c1ccc([C@H]2[C@@H](CO)N(C(C)=O)[C@@H]2CN(CC(C)C)C(=O)CC)cc1
→ 1, 0, 1.3
- CN(C)C(=O)c1cccc(-c2ccccc2[C@H]2[C@@H](C#N)N(C(=O)C3CCC3)[C@H]2CO)c1
→ 4, 4, 0.1
- COC(=O)[C@@H]1[C@@H](CO)[C@@H]2Cn3c(ccc(C4=CCCC4)c3=O)[C@@H]2N1Cc1cncnc1
→ 0, -7, 6.5

Continued.
Under each structure: DUX4 inh, DUX4 inh difference, DUX4 inh control
- O=C([C@@H]1[C@@H](CO)[C@@H]2Cn3c(cccc3=O)[C@H]1N2Cc1cocn1)N1CCCCC1
→ -2, -11, 9.5
- Cc1ccc(S(=O)(=O)N(C)C[C@@H]2OCCCC[C@H](C)Oc3ccc(NC(=O)C4CCCCC4)cc3C(=O)N([C@@H](C)CO)C[C@H]2C)cc1
→ -1, 3, -3.5
- CCCN1[C@@H]2Cn3c(ccc(-c4ccncc4)c3=O)[C@H]1[C@@H](C(=O)NCCc1cn(C)cn1)[C@@H]2CO
→ -3, -9, 6.5
- O=C(NCc1cccc(F)c1)[C@@H]1[C@@H](CO)[C@@H]2Cn3c(ccc(-c4cccnc4)c3=O)[C@H]1N2CC1CC1
→ -6, -2, -3.4
- C[C@@H]1CN([C@H](C)CO)C(=O)CCCn2cc(nn2)CO[C@@H]1CN(C)Cc1cccc2c1OCCCO2
→ -6, -6, -0.4
- C[C@H](CO)N1C[C@H](C)[C@H](CN(C)C(=O)Nc2ccc(F)cc2)Oc2cc(-c3ccncc3)ccc2S1(=O)=O
→ -2, -5, 3.1
- CO[C@@H]1CC[C@@H]2CCOc3ccc(C#N)cc3C(=O)N(C)C[C@H](C)C(=O)N(C)C[C@H]1O2
→ 8, 29, -21
- CC(=O)N1CC[C@H]2[C@H](CO)Nc3ccc(C#Cc4ccccc4F)cc3[C@H]21
→ 8, 5, 2.9
- Cc1ccccc1S(=O)(=O)N1CCCCN2[C@@H](CO)[C@@H](c3ccc(C#CCN(C)C)cc3)[C@@H]2C1
→ 25, 17, 8.2
- C/C=C/c1cccc(-c2nc(C(=O)Nc3nccs3)cc3c2[C@@H](CCO)N(C(=O)NC(C)C)C3)c1
→ 1, -3, 3.9
- CCCNC(=O)Nc1ccc2c(c1)OC[C@H](C)N(C(=O)c1ccccc1F)C[C@H](C)[C@@H](OC)CN(C)C2=O
→ 1, -5, 5.5
- O=C(C[C@H]1CC[C@H]2[C@@H](COC[C@H](O)CN2C(=O)c2ccncc2)O1)Nc1ccc(-c2ccccc2)cc1
→ 0, 8, -7.9
- Cc1noc(C)c1NC(=O)Nc1ccc2c(c1)C(=O)N([C@@H](C)CO)C[C@@H](C)[C@@H](CN(C)Cc1ccc3c(c1)OCO3)OCCCC[C@@H](C)O2
→ 2, 5, -3.7
- COC(=O)C[C@@H]1C[C@H]2c3cc(NS(=O)(=O)c4ccc(F)cc4)ccc3O[C@H]2[C@@H](CO)O1
→ -1, 3, -4.1
- CN(C)CCCNC(=O)C[C@@H]1CC[C@@H]2[C@@H](COc3ccc(NC(=O)C4CCC4)cc3C(=O)N2C)O1
→ 1, 1, 0.0
- CCCC#Cc1ccc([C@H]2[C@@H](CO)N3CCCCN(C(=O)c4ccc5c(c4)OCO5)C[C@@H]23)cc1
→ -5, -8, 3.8
- CCN1[C@@H]2c3cccc(=O)n3C[C@@H]2[C@@H](CO)[C@@H]1C(=O)N1CCc2ccccc2C1
→ -1, 0, -0.6
- CNC[C@H]1Oc2ccc(N(C)C)cc2C(=O)N([C@@H](C)CO)C[C@@H]1C
→ 6, 16, -10.0
- CCC(=O)N1CC2(CCN(Cc3ccccc3Cl)CC2)c2c([nH]c3cc(OC)ccc23)[C@@H]1CO
→ -8, 1, -9.7
- O=C(C[C@H]1CC[C@H]2[C@@H](COC[C@H](O)CN2C(=O)c2cnccn2)O1)N1CCN(c2ccccc2)CC1
→ 12, 6, 5.8
- Cc1cccc(S(=O)(=O)N(C)C[C@H]2OCc3ccccc3-c3c(n(C)c4ccccc34)C(=O)N([C@@H](C)CO)C[C@H]2C)c1
→ ?, ., .
- O=C(c1cccc(F)c1)N1C[C@@H]2[C@H](c3ccccc31)[C@H](CO)N2C(=O)Cc1ccccc1
→ 1, -3, 3.6
- COc1cccc(S(=O)(=O)N(C)C[C@H]2OCc3ccccc3-c3c(n(C)c4ccccc34)C(=O)N([C@H](C)CO)C[C@H]2C)c1
→ ?, ., .
- CCCNC(=O)N1CC2(C1)[C@H](c1ccccc1)[C@@H](CO)N2C(=O)c1ccncc1
→ 8, 6, 2.7
- O=C(NC1CCCCC1)[C@@H]1[C@@H](CO)[C@@H]2Cn3c(cccc3=O)[C@@H]2N1CC1CCCCC1
→ -7, -3, -3.9
- C[C@H](CO)N1C[C@H](C)[C@@H](CN(C)C(=O)Nc2ccc(-c3cccs3)cc2)OCc2cnnn2CCCC1=O
→ 0, 8, -7.4
- Cc1noc(C)c1S(=O)(=O)Nc1ccc2c(c1)C(=O)N([C@H](C)CO)C[C@H](C)[C@@H](CN(C)C(=O)NC1CCCCC1)O2
→ -1, 0, -0.5
- CCCC(=O)N1CC2(CCN(S(=O)(=O)CC)CC2)c2c(n(C)c3cc(OC)ccc23)[C@@H]1CO
→ 7, 2, 5.2
- CCCC(=O)Nc1ccc2c(c1)C(=O)N(C)[C@@H]1CC[C@@H](CC(=O)NCC3CCCCC3)O[C@H]1CO2
→ -2, -2, 0.1
- O=C(Cc1cccnc1)N1CC(=O)N2[C@@H](CO)[C@H](c3ccc(-c4cccc(F)c4)cc3)[C@@H]2C1
→ 4, 4, -0.4
- O=C(C[C@H]1CC[C@@H]2[C@H](COC[C@H](O)CN2C(=O)Nc2ccc(F)cc2)O1)NCCc1ccccc1
→ 6, 10, -3.9
- Cc1cccc(S(=O)(=O)N2C[C@H](O)COC[C@H]3O[C@@H](CC(=O)Nc4ccccc4)CC[C@@H]32)c1
→ 8, 6, 2.0
- Cc1noc(C)c1NC(=O)N(C)C[C@@H]1OCc2cn(nn2)CCCC(=O)N([C@@H](C)CO)C[C@H]1C
→ 9, 10, -1.0
- COc1ccc2c3c([nH]c2c1)[C@@H](CO)N(Cc1ccncc1)CC31CN(Cc2ccc(-c3ccccn3)cc2)C1
→ ?, ., .
- COc1ccc2c3c([nH]c2c1)[C@H](CO)N(C(=O)Nc1ccc(F)cc1)CC31CN(CC2CC2)C1
→ 2, 4, -2.1
- COC(=O)C[C@@H]1C[C@@H]2c3cc(NC(=O)c4cccnc4)ccc3O[C@@H]2[C@H](CO)O1
→ 3, 2, 0.9
- C[C@@H]1CN([C@H](C)CO)C(=O)c2ccccc2-c2ccccc2CO[C@H]1CN(C)C(=O)c1cc(Cl)cc(Cl)c1
→ -4, 1, -5.5
- O=C(Cc1cccnc1)N1CC2(C1)[C@H](c1ccccc1)[C@H](CO)N2C(=O)C1CCOCC1
→ 18, 12, 5.7
- COc1ccc(NC(=O)Nc2ccc3c(c2)[C@H]2C[C@H](CC(=O)NCc4ccccn4)O[C@H](CO)[C@H]2O3)cc1
→ -3, -1, -1.7
- CC(C)C(=O)Nc1ccc2c(c1)C(=O)N(C)[C@@H]1CC[C@H](CC(=O)NCCCN(C)C)O[C@H]1CO2
→ -1, -6, 5.0
- O=C(Cc1ccccc1)N1C[C@@H]2[C@H](c3ccccc31)[C@H](CO)N2C(=O)C1CCCCC1
→ 1, 1, 0.2
- COc1ccc(-c2ccc([C@@H]3[C@@H](CO)N(C(=O)C4CCCCC4)[C@H]3C#N)cc2)cc1
→ 2, 1, 1.4
- COC(=O)[C@@H]1[C@@H](CO)[C@@H]2Cn3c(ccc(-c4ccccc4)c3=O)[C@@H]2N1S(C)(=O)=O
→ -1, 1, -1.6
- COCC(=O)N1CC2(CN(S(C)(=O)=O)C2)c2c(n(C)c3cc(OC)ccc23)[C@H]1CO
→ 14, 0, 14
- O=C(C[C@H]1C[C@@H]2c3cc(NC(=O)C4CCC4)ccc3O[C@@H]2[C@@H](CO)O1)NCC1CC1
→ 8, 9, -1.3

Fetched one by one from above, three records:
Under each structure: DUX4 inh, DUX4 inh difference, DUX4 inh control
- COC(=O)C[C@@H]1C[C@@H]2c3cc(NC(=O)c4cccnc4)ccc3O[C@@H]2[C@H](CO)O1
→ 3, 2, 0.9
- COc1ccc(-c2ccc([C@@H]3[C@@H](CO)N(C(=O)C4CCCCC4)[C@H]3C#N)cc2)cc1
→ 2, 1, 1.4
- O=C(Cc1ccccc1)N1C[C@@H]2[C@H](c3ccccc31)[C@H](CO)N2C(=O)C1CCCCC1
→ 1, 1, 0.2

Assay outcomes (PubChem BioAssay)
